# Compound activity as filed in PubChem.
# Vaccinia Venus = inhibitors of vaccinia virus (Venus reporter); Vaccinia virus Venus reporter expression, fluorescence; Potency, µM (top dose mostly 36.5 µM), for the others: at the highest dose activity change, negative = inhibition, usual class: inhibitors; 330,000 compounds, 0.46% hits; active means well fitted inhibition curve with a large enough effect; inconclusive means small, poorly fitted or top-dose-only effect; inactive means no such curve, though single readings can be large or run the other way; tested in A549 cells; further: nearly all actives have a fitted effect of over 30% in size; inactives centre near -10
# VACV mCherry inh = inhibitors of vaccinia virus infection (mCherry reporter signal). Potency, µM (highest dose often 36.5 µM), inactives show at the top dose activity change, negative = inhibition, actives largely listed as inhibitors. 310,000 compounds, 0.63% hits. AID 720579. Vaccinia virus mCherry reporter infection, fluorescence; about a quarter of the inactives have no number; active = well fitted inhibition curve with a large enough effect; inconclusive = small, poorly fitted or top-dose-only effect; inactive = no such curve, though single readings can be large or run the other way; tested in A549 cells; further: nearly all actives have a fitted effect of over 35% in size; inactives centre near -10
# The depositor's hits bear a star; i = inactive; ? = inconclusive; nt = not tested or not shown; [ ] = remark or other dose. On the % scale 0 is the no-effect control and ±100 the full control effect; potency means the concentration at half of the fitted maximal effect.
SMILES,Vaccinia Venus,VACV mCherry inh
CCC(c1nnnn1C1CCCCC1)N1CCC2(CC1)C(=O)NCN2c1ccccc1 (stereo not given),-6%,3%
CC(=O)OCC(OC(C)=O)C(OC(C)=O)C(OC(C)=O)C(=O)Nc1cccc(C)c1 (stereo not given),-8%,i
COC(=O)CCCC1=CC2=CC(=O)C(C)(OC(=O)c3cccs3)C(=O)C2=CN1C1CCCC1 (stereo not given),-1%,-5%
CCCCOC(=O)c1ccc(NC(=O)Cc2coc3c(C)c(C)ccc23)cc1,-7%,i
Cc1ccc(C(C(=O)NC2CCCC2)N(C(=O)CCC(=O)Nc2cc(C)on2)c2ccccc2)cc1 (stereo not given),6%,-1%
Cc1ccc(NC(=O)CSc2nc3nccnc3c(=O)n2CCc2c[nH]c3ccccc23)cc1C,-12%,-12%
CC(C)(C)C(C(=O)n1cccc1C#N)c1ccccc1 (stereo not given),-4%,-5%
CC(C)(C)C1CCc2c(sc(NC(=O)c3cc4ccccc4c(=O)o3)c2C(N)=O)C1 (stereo not given),4%,-3%
CN(C)CC1C2CCC(C2)C1O (stereo not given),12%,-8%
CCN(c1ccccc1)S(=O)(=O)c1ccc(C(=O)N(CCCN(C)C)c2nc3c(C)cccc3s2)cc1,-27%,-9%
COc1ccccc1C(=O)C1CCCN(C(=O)c2cccnc2SC)C1 (stereo not given),-12%,?
COc1ccccc1C(O)(C(=O)NN(C(=O)c1ccccc1)c1ccccc1C)c1cccs1 (stereo not given),-14%,nt
COc1ccc(C(CC(=O)c2ccccc2)CC(=O)c2ccccc2)cc1,9%,-5%
O=C(CCc1nc(-c2cccs2)no1)NCc1ccc(F)cc1Cl,-14%,i
COc1cc2c(cc1OC)C(C(=O)NC(C)c1ccccc1)CC(=O)N2 (stereo not given),1%,-1%

# Five entries from above, arranged by number of heavy atoms, lowest first:
SMILES,Vaccinia Venus,VACV mCherry inh
CN(C)CC1C2CCC(C2)C1O (stereo not given),12%,-8%
O=C(CCc1nc(-c2cccs2)no1)NCc1ccc(F)cc1Cl,-14%,i
CCC(c1nnnn1C1CCCCC1)N1CCC2(CC1)C(=O)NCN2c1ccccc1 (stereo not given),-6%,3%
COC(=O)CCCC1=CC2=CC(=O)C(C)(OC(=O)c3cccs3)C(=O)C2=CN1C1CCCC1 (stereo not given),-1%,-5%
CCN(c1ccccc1)S(=O)(=O)c1ccc(C(=O)N(CCCN(C)C)c2nc3c(C)cccc3s2)cc1,-27%,-9%

# (cont.)
SMILES,Vaccinia Venus,VACV mCherry inh
CC(Sc1ncccn1)C(=O)Nc1ccc2c(c1)OCO2 (stereo not given),6%,-12%
CC1=CS/C(=C(/C#N)C(=O)N2CCOCC2)N1c1ccccc1,0%,-9%
CN[C@H](C)[C@H](O)c1ccccc1,-10%,-13%
CCOC(=O)[C@H](C)N1[C@H](C)[C@H](c2ccccc2)Oc2ccc(Cl)cc2S1(=O)=O,-6%,?
O=C(CN(Cc1ccccc1Cl)C(=O)CN1C(=O)CSc2ccccc21)NC1CC1,-1%,-9%
CCOc1ccc(-c2cc(CCCC(=O)NCCC(C)C)no2)cc1,-12%,i
CCOC(=O)Nc1ccc(C)cc1Br,-12%,i
COc1ccc(Cl)cc1NC(=O)CN(C)C(=O)C1COc2ccccc2O1 (stereo not given),-20%,-20%
COc1cc2c(NC3CCN(C)CC3)nc(N3CCCN(C)CC3)nc2cc1OCCOCCN(C)C,-20%,-23%
Cn1ncc(SCc2ccccc2)c(Cl)c1=O,-19%,-10%
CCOc1ccccc1NC(=O)CNC(=O)c1nn(-c2ccc(OC)c(OC)c2)c(=O)c2ccccc12,-11%,i
O=C(NCc1cccc(F)c1)c1ccc(N2C(=O)Cn3c(cc4sccc43)C2=O)cc1,-12%,-20%
CNC(=O)c1c(NC(=O)c2ccco2)sc(C)c1C,-25%,-23%
CCc1ccccc1NC(=O)Nc1ccc(F)cc1,-14%,i
N#CC1(Nc2ccccc2)C(=O)Nc2ccccc21 (stereo not given),-1%,-8%

# Reprinted at random: 6 records from the list.
SMILES,Vaccinia Venus,VACV mCherry inh
CCOc1ccc(-c2cc(CCCC(=O)NCCC(C)C)no2)cc1,-12%,i
CN[C@H](C)[C@H](O)c1ccccc1,-10%,-13%
Cn1ncc(SCc2ccccc2)c(Cl)c1=O,-19%,-10%
O=C(NCc1cccc(F)c1)c1ccc(N2C(=O)Cn3c(cc4sccc43)C2=O)cc1,-12%,-20%
N#CC1(Nc2ccccc2)C(=O)Nc2ccccc21 (stereo not given),-1%,-8%
COc1ccc(Cl)cc1NC(=O)CN(C)C(=O)C1COc2ccccc2O1 (stereo not given),-20%,-20%

# Additional results:
SMILES,Vaccinia Venus,VACV mCherry inh
CC1CCCC(NC(=O)COC(=O)/C=C/c2ccc(F)cc2)C1C (stereo not given),-5%,-15%
O=C(NCCN1CCCCC1)c1ccc(Cn2c(SCc3ccc(F)cc3)nc3cccnc32)cc1,-19%,-11%
O=C(CCc1ccccc1)N/N=C/c1cccc([N+](=O)[O-])c1,-5%,-25%
O=C(NCC(=O)N1CCN(c2ccccc2)CC1)c1ccccc1,-11%,-8%
O=C(COc1coc(CN2CCc3ccccc3C2)cc1=O)Nc1cccc(Cl)c1,-9%,-10%
O=S(=O)(c1ccccc1)c1nc(-c2ccccc2)oc1NCc1cccnc1,-22%,nt
O=C(COC(=O)COc1ccccc1)Nc1ccc(S(=O)(=O)N2CCOCC2)cc1,-2%,i
C1=C[C@@H]2CCN(Cc3ccccc3)Cc3cccc(c32)C1,-17%,-1%
FC(F)(F)c1nc2ccccc2n2c(-c3ccc(Cl)cc3)nnc12,?,nt
COc1ccccc1NS(=O)(=O)c1cccc(NS(=O)(=O)c2ccc(Cl)c(C(=O)O)c2)c1,-7%,-8%
Cc1ccc(NC(=O)c2nnn(-c3cccc(C(F)(F)F)c3)c2N)cc1,-13%,0%
CCn1nnc2c(N3CCCC3)ncnc21,-18%,-1%
CCN(CC)CC(=O)Nc1ccccc1SCC(=O)Nc1ccsc1C(=O)OC,-6%,-16%
COC(=O)c1sc(N2C(=O)c3oc4ccc(F)cc4c(=O)c3C2c2ccc(C)cc2)nc1C (stereo not given),-6%,i
CC1(C)Cc2c(c(N3CCOCC3)nc3sc4c(=O)[nH]cnc4c23)CS1,-7%,-19%
O=C(NCC(c1ccc2c(c1)OCO2)N1CCOCC1)c1ccccc1F (stereo not given),2%,-8%
COc1ccc(NC(=O)Nc2nnc(N3CCCCC3C)s2)cc1OC (stereo not given),-3%,-9%
CCC(=O)Nc1ccc(NC(=O)C23CC4CC(CC(C4)C2)C3)cn1,-19%,5%
CCN(CC)c1ccc(C(=O)NCc2ccc3c(c2)CCN3C(=O)c2cccc(C)c2)cc1,-1%,-11%
COc1cc2c(c(Br)c1N)-c1cc(Br)c(N)cc1C2=O,?,?
COc1ccc(NC(=O)/C(C#N)=C\C=C\c2ccco2)cc1,?,?
COCc1cc(C)nc2sc3c(=O)n(Cc4ccco4)nnc3c12,-17%,-10%
Cn1cc(P(=S)(N2CCOCC2)N2CCOCC2)cc1P(=O)(N1CCOCC1)N1CCOCC1,-7%,2%
Cc1ccc(/C(N)=N/OC(=O)CCCc2ccccc2)cc1,-6%,i
CCN(CC)CC(O)Cn1c2ccccc2c2ccccc21 (stereo not given),-14%,nt
CC(C)(Oc1ccc(Cl)cc1)C(=O)NCc1ccco1,-11%,nt
O=C(c1ccc(Cl)cc1)N1CCN(c2ccc(N3CCOCC3)nn2)CC1,-16%,i
O=C(CCN1c2ccccc2Sc2ccccc21)OCc1nnc(-c2ccccc2)o1,-6%,-10%
CCN1C(=O)c2ccccc2Sc2ccc(NC(=O)c3cccc(C)c3)cc21,-26%,?
Cc1ccc(Nc2cc(C)nc3ncnn23)cc1,-27%,?
O=C(NCCCN1CCOCC1)c1ccc(NS(=O)(=O)c2cccc([N+](=O)[O-])c2)cc1,-12%,i
COc1cc(O)c2c(=O)c(O)c(-c3ccc(O)c(O)c3)oc2c1,-1%,-9%
O=C(NC(=S)NCC1COc2ccccc2O1)c1ccccc1 (stereo not given),-7%,-4%
CCCCNCCOCCOc1ccc(C)cc1Br,-11%,-28%
Clc1cccc(NC2=NCCS2)c1,-10%,?
COC(=O)C[C@H]1C=C[C@H](NS(=O)(=O)c2cn(C)cn2)[C@@H](CO)O1,-12%,-13%
CCCCOCCCNC(=O)C[C@@H]1C[C@@]2(C(=O)OCC)CCC=C2N(Cc2ccccc2)C1=O,-5%,-14%
O=C1CC(c2ccc(Cl)cc2)SC(N(c2ccccc2)c2ccccc2)=N1 (stereo not given),?,?
CC1CCCCN1c1cc(C#N)c(C#N)cc1[N+](=O)[O-] (stereo not given),-21%,-19%
Cc1ccccc1S(=O)(=O)Cc1ccc(C(=O)N2CCN(C3CCCCC3)CC2)o1,-5%,38%[activator]
O=C(Nc1cccc(Cl)c1)OCc1cnc(Cl)s1,?,nt
Cc1cc(C)c2c(=O)n(CC(=O)NCCCN3CCOCC3)sc2n1,-3%,0%
O=[N+]([O-])c1ccccc1N/N=C/c1ccc2c(c1)OCO2,1%,3%
Fc1cccc(-c2ccc3c(c2)CNCc2cnnn2-3)c1,-5%,i
Cc1cc(C)nc(NC(=O)c2cc([N+](=O)[O-])cc([N+](=O)[O-])c2)n1,-7%,-17%
N/C(=N\N=C\c1ccc([N+](=O)[O-])cc1)c1nonc1N,-17%,i
Cc1ccc(N2C(=O)c3cccc4c(Oc5ccccc5[N+](=O)[O-])ccc(c34)C2=O)c(C)c1,5%,-7%
CCC(CC)c1nnc(NC(=O)c2c(C)nn(Cc3ccccc3Cl)c2C)s1,-19%,nt
CCOCCc1nnc(NC(=O)CS(=O)(=O)c2ccc(C)cc2)s1,-3%,i
O=C(Cn1c(=O)n(CCCCC(=O)NC2CCCC2)c(=O)c2ccccc21)NCCC1=CCCCC1,-10%,-8%
Cn1nnc2c(N3CCN(c4ccccc4)CC3)ncnc21,3%,-7%
O=C(NC(c1ccccc1)c1ccsc1)C1CCN(Cc2ccccc2)CC1 (stereo not given),-5%,i
Cc1cc(C)cc(CC2CC(=O)N(c3ccc4c(c3)OCCO4)C2=O)c1 (stereo not given),-12%,-14%
CCOc1ccc(NC(=O)c2cccc3c(=O)c4c([nH]c23)CCCC4)cc1,-16%,-10%
CN(CC(=O)N1CCN(Cc2ccccc2)CC1)S(=O)(=O)c1ccc(Br)cc1,-15%,-4%
COc1ccc(CCNC(=O)c2ccc(Cl)cc2Cl)cc1,-15%,-21%
COC(=O)c1ccccc1NC(=O)Cn1c(CCC(=O)O)ccc1-c1cccs1,-16%,-12%
CN(C)S(=O)(=O)c1cccc(NC(=S)N/N=C/c2cc(Br)ccc2O)c1,?,?
O=S(=O)(Nc1ccccc1Cl)c1ccc2[nH]c(=S)oc2c1,0%,-11%
Cc1ccc2c(c1)N(CCCC(=O)NCc1cccc(F)c1)C(=O)CO2,-19%,-11%
# (listing goes on)
SMILES,Vaccinia Venus,VACV mCherry inh
Cc1cccc(C(=O)Nc2cc(Cl)ccc2-n2cncn2)c1[N+](=O)[O-],-7%,-11%
CC1CCN(c2ccc(NC(=S)NC(=O)c3ccco3)cc2)CC1,-7%,nt
COc1ccc(OC)c(C(=O)COC(=O)C2CC3CCCC(C2)C3=O)c1 (stereo not given),-24%,nt
Cc1cc(=O)oc2cc(OCC(=O)c3ccccc3)ccc12,-9%,-14%
CCCC(C)NC(=O)C1CCN(C(=O)C2CC(=O)N(c3ccc(C)cc3)C2)CC1 (stereo not given),6%,4%
Cc1cc(NC(=O)c2ccc3c(c2)OCO3)ccc1NC(=O)c1ccco1,-15%,i
C/C(=N/Nc1ccc(C(=O)c2c(C)cc3ccccn23)cc1[N+](=O)[O-])c1ccc(O)cc1,0%,i
Cc1ccc(-n2c(/C=C\c3ccc(F)c(F)c3)nc3ccccc3c2=O)c(C)c1,?,?
COc1ccc(NC(=O)C2CCN(C(=O)c3ccc(OC)cc3)CC2)cc1,-19%,-24%
COc1ccc(S(=O)(=O)N(C)C[C@H]2OCc3cn(nn3)CCCC(=O)N([C@@H](C)CO)C[C@@H]2C)cc1,-9%,6%
CS/C(=C\[N+](=O)[O-])Nc1ccc(F)cc1,-8%,i
COc1ccccc1CNC(=O)c1cc(-c2ccccc2)nn1CC1CC(c2cccnc2)=NO1 (stereo not given),-9%,11%
Cc1ccc(C(=O)c2oc3ccccc3c2NC(=O)c2cc(=O)c3cc(C)ccc3o2)cc1,-12%,i
COc1cc(C(C2C(=O)CC(C)(C)CC2=O)C2C(=O)CC(C)(C)CC2=O)ccc1OC(C)=O,1%,-5%
O=C(CSCc1ccc(Cl)cc1)NCC1CCCO1 (stereo not given),-10%,-21%
COc1ccc(NC(=O)COC(=O)CCc2ccccc2)c(OC)c1,0%,-6%
Cc1ccc(CSc2ccc(-c3ccc4c(c3)OCO4)nn2)cc1,-14%,-13%
Cc1cc2ncc(C(=O)N=CN(C)C)cn2n1,-14%,-3%
O=C(NC1CCCc2ccccc21)c1cc(Cl)ccn1 (stereo not given),-10%,i
Nc1ccc(-c2nnc(-c3ccc(-c4ccccc4)cc3)o2)cc1,?,?
COc1ccc(-n2nc3c(c2NC(=O)C2CC2)CS(=O)(=O)C3)cc1,2%,-5%
COc1ccc(CC(=O)Cc2ccc(OC)c(OC)c2)cc1OC,-8%,-13%
COc1cc(/C=N/NC(=O)c2cc(C)oc2C)ccc1O,-12%,i
CCOc1ccc(-n2c(C)c(C(C)=O)c3cc(OCC(N)=O)ccc32)cc1,-10%,-26%
CN(C(=O)c1cccc(NC(=O)Cc2ccc(NC(=O)C3CCCN(C(=O)C4CCC4)C3)cc2)c1)C1CCC1 (stereo not given),-13%,i
